Screens from PubChem BioAssay.
KCNQ2 inh: KCNQ2 potassium channel inhibitors, primary screen, cell-based, CHO-K1, FluxOR thallium flux, B-score (AID 2156); B-score at 10 µM; 20 min; active compounds read low; only compounds with negative scores are shown here; some inactives read as strong as hits; 310,000 tested, 1.1% active;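 active = fluorescence ratio B-score at most minus 3 library SDs, with starting brightness B-score within 2 library SDs, cut at about -5.5 in these data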
Target sequence (O88943 whole entry, looked up): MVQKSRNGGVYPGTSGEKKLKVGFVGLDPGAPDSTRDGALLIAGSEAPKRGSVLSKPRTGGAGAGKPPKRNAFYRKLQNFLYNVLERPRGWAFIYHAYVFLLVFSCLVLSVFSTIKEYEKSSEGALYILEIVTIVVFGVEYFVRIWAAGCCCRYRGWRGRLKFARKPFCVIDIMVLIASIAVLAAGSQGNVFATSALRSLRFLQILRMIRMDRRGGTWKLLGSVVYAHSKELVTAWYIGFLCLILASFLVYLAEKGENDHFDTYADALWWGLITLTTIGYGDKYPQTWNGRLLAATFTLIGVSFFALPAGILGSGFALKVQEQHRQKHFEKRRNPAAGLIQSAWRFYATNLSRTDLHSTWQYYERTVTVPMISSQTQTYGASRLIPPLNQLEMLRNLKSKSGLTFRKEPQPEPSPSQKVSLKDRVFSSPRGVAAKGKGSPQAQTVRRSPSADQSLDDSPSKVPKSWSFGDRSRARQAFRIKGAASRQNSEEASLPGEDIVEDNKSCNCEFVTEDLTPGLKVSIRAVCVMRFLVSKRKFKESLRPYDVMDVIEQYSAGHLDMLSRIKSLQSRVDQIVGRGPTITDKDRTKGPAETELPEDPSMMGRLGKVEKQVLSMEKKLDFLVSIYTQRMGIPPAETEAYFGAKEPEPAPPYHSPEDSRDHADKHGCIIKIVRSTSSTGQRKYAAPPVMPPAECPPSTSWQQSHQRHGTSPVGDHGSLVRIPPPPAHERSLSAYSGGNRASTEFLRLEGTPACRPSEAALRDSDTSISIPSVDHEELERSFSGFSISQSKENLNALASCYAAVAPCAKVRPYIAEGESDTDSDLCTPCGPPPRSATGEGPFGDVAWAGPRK
KCNQ2 inh baseline: also measured in KCNQ2 inh; calls as there; B-score; measured here: initial fluorescence intensity artifact check;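 brightness before thallium and not channel activity; 0 = typical well and far values either way flag optical interference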
The depositor's hits bear a star; i = inactive. These rows are one share of the data; count on the stated rates, not on these rows.

SMILES	KCNQ2 inh	KCNQ2 inh baseline
CCOC(=O)c1c(CSC(=N)N)n(C)c2cc(Br)c(OC(C)=O)cc12	i	3.23
COc1ccc2[nH]c3c(N4CCC(O)(c5cccc(C(F)(F)F)c5)CC4)ncnc3c2c1	i	-1.87
CCc1ccc(-c2cc(C)no2)cc1S(=O)(=O)N1CCOc2ccccc21	i	-1.45
Cc1ccc(OCCCOc2cccc3cccnc23)cc1C	i	0.41
Cc1nc(-c2ccc(NC(=O)Cc3ccccc3)cc2)cs1	i	-0.85
COc1cc(C(=O)NC2CC(C)(C)NC(C)(C)C2)cc(OC)c1OC	i	-2.07
COc1ccc(NC(=O)CSc2nnc(-c3cccnc3)o2)c(OC)c1	i	2.56
CCCn1cc(S(=O)(=O)c2ccccc2)c(=O)c2cc(OC)c(OC)cc21	i	0.67
COc1ccc(/C=N/NC(=O)NC23CC4CC(CC(C4)C2)C3)c(OC)c1	i	1.71
COc1ccc(Br)cc1CNC(=O)CCc1nc(-c2ccccc2F)no1	i	1.08
CN(C)CCP(=O)(c1ccccc1)c1ccccc1	i	-1.75
O=C(NC1CCCCC1)C(c1ccc2ncccc2c1)N(Cc1ccc2c(c1)OCO2)C(=O)c1cccs1 (stereo not drawn)	i	1.13
S=C(NCc1cccnc1)Nc1ccc(Oc2ccc(Cl)cc2)cc1	i	0.02
CN(C)CC/C=C1\c2ccccc2Sc2cc(F)c(Cl)cc21	i	0.68
COc1ccc(N2C(=O)CS(=O)C(c3ccccc3)C2=O)cc1 (stereo not drawn)	i	0.5
COc1ccc(-c2nnc3sc(-c4cccs4)nn23)cc1OC	i	0.13
O=[N+]([O-])c1cccc(-c2csc(CS(=O)(=O)Cc3ccco3)n2)c1	i	0.02
CCCOc1ccc(Cc2c(O)nc(SC)[nH]c2=O)cc1C	i	1.36
OCC[n+]1ccc(/C=C/c2c[nH]c3ccccc23)cc1	i	35.8
Cc1cc(C)cc(OCC(=O)Nc2ccc(S(=O)(=O)Nc3ccccn3)cc2)c1	i	0.1
Cc1ccccc1SC1CCN(Cc2nc(C3CC3)no2)CC1	i	-0.17
Cc1ccc2c(c1)C1CN(C)CCC1N2C(=O)c1cccc(S(=O)(=O)N2CC(C)CC(C)C2)c1 (stereo not drawn)	i	-0.45
CCS(=O)(=O)NCCc1csc(-c2ccc(OC)c(OC)c2)n1	i	1.54
Cc1cccc(C)c1N(CC(=O)Nc1cccc(N(C)S(C)(=O)=O)c1)S(C)(=O)=O	i	1.95
CCc1ccccc1NC(=S)N(Cc1ccco1)C(C)c1cccs1 (stereo not drawn)	i	0.73

The last 4 records of the part before lead into the next:
SMILES	KCNQ2 inh	KCNQ2 inh baseline
Cc1ccc2c(c1)C1CN(C)CCC1N2C(=O)c1cccc(S(=O)(=O)N2CC(C)CC(C)C2)c1 (stereo not drawn)	i	-0.45
CCS(=O)(=O)NCCc1csc(-c2ccc(OC)c(OC)c2)n1	i	1.54
Cc1cccc(C)c1N(CC(=O)Nc1cccc(N(C)S(C)(=O)=O)c1)S(C)(=O)=O	i	1.95
CCc1ccccc1NC(=S)N(Cc1ccco1)C(C)c1cccs1 (stereo not drawn)	i	0.73
Cc1cccc(C(=O)NNC(=O)/C=C/C(=O)O)c1	i	-0.28
COc1ccc(C2(C(=O)NCCCN(C)C)CCOCC2)cc1	i	1.38
CCOC(=O)c1c(NC(=O)COc2ccccc2OCC)sc2c1CC(C)(C)NC2(C)C	i	1.13
Cc1cccc2cc(/C=N/NC(=O)[C@H]3C[C@@H]3c3ccccc3)c(Cl)nc12	i	-0.94
O=C(O)/C=C/c1ccc([N+](=O)[O-])o1	i	0.45
Cn1cc(CC(=O)N2CCN(c3ccccc3F)CC2)c2ccccc21	i	-0.48
CCc1ccc(OCCCCN(C)Cc2ccccc2)cc1	i	-1.37
O=C(CSc1ccc(Cl)cc1)N1CCN(c2c(Cl)cccc2[N+](=O)[O-])CC1	-8.23*	0.07*
CCOc1ccccc1N1CCN(C(=O)c2cn(CC3CCCCC3)nn2)CC1	i	0.09
CCn1cc(CNC(=O)C2CCC(=O)N(Cc3ccccc3F)C2)cn1 (stereo not drawn)	i	1.37
CCCCOc1ccc(C(=O)NCC(=O)NCC2CCCO2)cc1 (stereo not drawn)	i	0.78
Cc1sc2ncnc(SCC(=O)NNC(=O)COc3cccc4ccccc34)c2c1C	i	-0.25
CC(C)C(=O)Nc1nnc(SCC(=O)NCc2cccs2)s1	i	2.13
NS(=O)(=O)c1ccc(C(=O)Nc2ccc(-c3nc4cccnc4s3)cc2)cc1	i	0.44
O=C(NCc1ccc(Cl)s1)C1CCC(=O)N(CCc2cccc(F)c2)C1 (stereo not drawn)	i	0.85
CCOC(=O)C(=CNc1cc(C)ccc1C)C(=O)OCC	i	4.13
CCOC(=O)c1cc(NC(=O)c2cccnc2)cc(C(=O)OCC)c1	i	0.62
O=S(=O)(c1cccc(S(=O)(=O)N2CCOCC2)c1)N1CCCCCC1	i	1.82
CN(C(=O)c1cc(-c2ccccc2)on1)C1CCCCC1	i	-1.68
O=C(NCCc1ccccc1)c1cccc(S(=O)(=O)NCc2ccccc2)c1	i	2.24
O=C(c1cn(-c2ccccc2)nc1-c1cccs1)N1CCN(c2ccccn2)CC1	i	-2.19
CCCCCCOc1ccc(/C=C/C(=O)N2CCOCC2)cc1OC	i	-0.08
CCc1nccn1S(=O)(=O)c1cc(OC)ccc1OC	i	1.23
Cc1ccc(OCC(=O)Nc2cccc3c2CCCC3)cc1C	i	-2.43
O=C1c2ccccc2COc2ccc(O)cc21	i	-2.02

2 compounds picked at random from those above:
SMILES	KCNQ2 inh	KCNQ2 inh baseline
NS(=O)(=O)c1ccc(C(=O)Nc2ccc(-c3nc4cccnc4s3)cc2)cc1	i	0.44
O=C(CSc1ccc(Cl)cc1)N1CCN(c2c(Cl)cccc2[N+](=O)[O-])CC1	-8.23*	0.07*

Carrying on:
SMILES	KCNQ2 inh	KCNQ2 inh baseline
COc1ccc(NC(=O)c2ccccc2S(=O)c2ccccc2C#N)cc1 (stereo not drawn)	i	-0.28
CC1CCC(NC(=O)C2CCC(CNS(=O)(=O)c3cccc4cccnc34)CC2)CC1 (stereo not drawn)	i	-0.22
CC1(c2nnc(-c3cccc(Cl)c3)o2)CC(c2ccc(OC(F)(F)F)cc2)=NO1 (stereo not drawn)	i	0.04
CCC1S/C(=N/N=C/c2ccco2)N(Cc2ccc(F)cc2)C1=O (stereo not drawn)	i	-0.5
Cc1cc(C)c(S(=O)(=O)Nc2ccccc2C(=O)OCC(=O)NCc2ccccc2)c(C)c1	i	0.88
Cc1ccc(/C=N/NC(=O)c2ccco2)cc1	i	-1.85
Cc1ccc2c(CC(=O)N3CCN(c4ccccc4)CC3)coc2c1	i	-1.46
Cc1ccc(-c2csc(NC(=O)c3ccc(-c4ccccc4)cc3)n2)o1	i	-0.55
CC(C)N1C(=O)CCC1C(=O)NCc1ccccc1Cl (stereo not drawn)	i	1.73
Cc1cccc(/C=C/C(=O)c2ccc(NC3=NCCCS3)cc2)c1	i	0.71
Cc1ccc(C(=O)N2CCCC(Nc3ccc(C(C)C)cc3)C2)cn1 (stereo not drawn)	i	-1.18
CC1CCCC(C)N1CCCNC(=O)Cn1cc2c(n1)CCCC2 (stereo not drawn)	i	0.2
CC(C)=NNc1nc(-c2ccccc2)cs1	i	-1.15
O=c1c([N+](=O)[O-])cccn1Cc1ccccc1Cl	i	-0.77
CCN1CCN(CCCNC(=O)CCC(=O)N2CC(C)Oc3ccc(C)cc32)CC1 (stereo not drawn)	i	0.91
O=[N+]([O-])c1ccc(N2CCN(c3ccccn3)CC2)c(Cl)c1	i	1.64
CCOc1ccc2nc(SCC(=O)c3cccs3)sc2c1	i	0.92
COc1cc(NC(=O)CN2C(=O)CSc3ccc(S(=O)(=O)N4CCCC4)cc32)cc(OC)c1	i	1.64
CCc1nnc2sc(-c3ccc(NC(=O)CSc4ccc(Cl)cc4)cc3)nn12	i	-2.15
COc1ccc(NC(=O)CN(C)S(=O)(=O)c2ccc(Cl)cc2)cc1Cl	i	0.83
Nc1cc(S(=O)(=O)C(F)(F)F)ccc1C(=O)O	i	0.9
CC(=O)OCC(=O)Nc1ccc(N=Nc2ccccc2)cc1	i	0.04
Cn1c(=O)c(NC(=O)c2ccccc2)c2n(c1=S)CCCCC2	i	-2.41
CCn1c(SCC(=O)N/N=C/C=C/c2ccccc2[N+](=O)[O-])nnc1-c1ccc(Cl)cc1	i	-2.55
Cc1cccc(NS(=O)(=O)c2c(C(=O)N3CCCC3)c(C)n(C)c2C)c1	i	0.08

Continued:
SMILES	KCNQ2 inh	KCNQ2 inh baseline
CSc1ccc(C(=O)c2[nH]c(=O)[nH]c2C)cc1	i	1.16
COc1ccc(/C=N/Nc2nc(Nc3ccccc3)nc(N3CCCC3)n2)cc1	i	0.49
Cc1ccc(C(=O)NCC(=O)OCC(=O)Nc2ncc(C(F)(F)F)cc2Cl)cc1	i	0.03
C/C=C/CSc1nc2c(c(=O)[nH]c(=O)n2C)n1C(C)C	i	-0.68
Cc1cc(C)nc(NC(=O)CN2C(=O)c3ccccc3S2(=O)=O)n1	i	-1.43
O=C(Cc1ccsc1)Nc1ccccc1F	i	1.43
CCOc1ccc(NC(=O)CN(C)C(=O)c2ccc(C)c(S(=O)(=O)N3CCCCC3)c2)cc1OCC	i	-0.24
CCN1CCN(C(=O)C2CCN(S(=O)(=O)N3CCC4(CC3)OCCO4)CC2)CC1	i	1.43
CCOc1ccccc1CN1CCNC(=O)C1CC(=O)N(C)CCC1CCOCC1 (stereo not drawn)	i	-2.49
O=CN(c1ccccc1)c1ccc2ccccc2c1	i	0.45
COc1ccc(S(=O)(=O)N(Cc2ccccc2)c2ccccc2C(=O)O)cc1	i	-2.74
CSc1nnc2n(Cc3ccccc3)c(=O)c3c4c(sc3n12)COC(C(C)C)C4 (stereo not drawn)	i	-0.45
COc1ccc(N2CCN(C(=O)/C(C#N)=C/c3ccccc3)CC2)cc1	i	0.36
COc1ccc(NC(=O)CN(C)C(=O)c2ccc(N3CCCC3)c([N+](=O)[O-])c2)cc1	i	-1.29
COc1ccc2nc(C)cc(SCC(=O)N/N=C/c3ccco3)c2c1	i	1.03
C=CCNC(=O)c1ccccc1CCc1ccccc1	i	-1.02
CN(CC(=O)Nc1ccc(C#N)cc1)Cc1ccc(Cl)cc1	i	-0.05
Cc1ccc2cccc(S(=O)(=O)Nc3ccc4c(c3)OCO4)c2n1	i	-0.84
COc1ccc(-c2cc(C(=O)N3CCCC(C(F)(F)F)C3)c3ccccc3n2)cc1OC (stereo not drawn)	i	-1.3
O=C(CSc1nc2cc(S(=O)(=O)N3CCOCC3)ccc2o1)Nc1c(F)cccc1F	i	-0.89
Cc1cc(C)c2cc(CN(CCO)Cc3nnnn3Cc3ccc(F)cc3)c(=O)[nH]c2c1	i	1.54
CC(C)(C)NC(=O)CSc1ncccc1-c1nc2ccccc2[nH]1	i	-1.11
CC(C)(C)c1ccc(-c2nc(C#N)c(NCc3ccncc3)o2)cc1	i	-0.77
C#CCn1c(-c2ccccc2)ccc(C#N)c1=O	i	-2.3
Cn1c(=O)n(CC(=O)NCc2cccnc2)c2ccccc21	i	0.48

The listing continues.
SMILES	KCNQ2 inh	KCNQ2 inh baseline
CC(=O)c1c(O)cc(O)cc1CC(=O)O	i	0.04
O=c1cc[nH]c2c1ccc1cccnc12	i	1.78
O=C1CC(SC(=NCc2ccc3c(c2)OCO3)Nc2ccccc2)C(=O)N1c1ccccc1 (stereo not drawn)	i	0.68
Cc1ccc(C)c(SCC(=O)OCC(=O)N2CC(C)OC(C)C2)c1 (stereo not drawn)	i	1.86
C=CCn1c(SCC(=O)NCCCC)nc2scc(-c3ccco3)c2c1=O	i	-0.08
O=C(NCCCN1CCOCC1)c1ccc2nc(Cc3ccccc3F)oc2c1	i	-0.3
Cc1cccc(C(=O)Nc2ccc(N3CCN(C(=O)c4ccco4)CC3)cc2)c1	i	-1.32
COC(=O)c1cc(-c2ccc(S(=O)(=O)N3CCCC3)cc2)c(C(F)(F)F)s1	i	-1.18
CN(CCCC(=O)Nc1ccncc1)S(=O)(=O)c1ccc(Cl)cc1	i	0.48
O=C1N(Cc2cccnc2)C[C@@H]2C[C@@H](c3cccc(OCc4ccccc4)c3)N3CCC[C@@]123	i	-0.69
CCOc1ccc(C)cc1S(=O)(=O)NC1CCCCC1	i	-0.16
COCCOC(=O)C1=C(C)NC(=O)NC1c1cc2c(cc1Br)OCO2 (stereo not drawn)	i	3.21
O=C(NC(=S)Nc1ccc2[nH]c(=O)[nH]c2c1)c1cncc(Br)c1	i	0.42
CC1CCN(C(=O)C2CCN(c3nnc(-n4cccc4)s3)CC2)CC1	i	0.36
COc1cccc(NC(=O)N2CCN(c3ccc(C(F)(F)F)cn3)CC2)c1	i	2.1
O=S(=O)(NCc1nc2ccccc2[nH]1)c1ccccc1	i	-1.32
CC(=O)C1=C(O)C(=O)N(c2ccc(F)cc2)C1c1ccc(C)cc1 (stereo not drawn)	i	0.76
CC(=O)c1cccc(S(=O)(=O)N2CCCC(c3nc4c(nnn4Cc4ccc(C)cc4)c(=O)[nH]3)C2)c1 (stereo not drawn)	i	-1.53
CCc1ccc2oc(-c3ccc(NC(C)=O)cc3)nc2c1	i	0.43
O=C(NCc1cccnc1)c1cccs1	i	-0.39
O=S(=O)(c1cc(F)ccc1F)N1CCN2CCCC2C1 (stereo not drawn)	i	0.87
CCOC(=O)CCNC(=O)CCNC(=O)C(c1ccccc1)c1ccccc1	i	-0.64

Some of these compounds in order of the KCNQ2 inh baseline value, high to low:
molecule,KCNQ2 inh baseline
COc1cccc(NC(=O)N2CCN(c3ccc(C(F)(F)F)cn3)CC2)c1,2.1
CN(CCCC(=O)Nc1ccncc1)S(=O)(=O)c1ccc(Cl)cc1,0.48
CCc1ccc2oc(-c3ccc(NC(C)=O)cc3)nc2c1,0.43
C=CCn1c(SCC(=O)NCCCC)nc2scc(-c3ccco3)c2c1=O,-0.08
O=C(NCCCN1CCOCC1)c1ccc2nc(Cc3ccccc3F)oc2c1,-0.3
CCOC(=O)CCNC(=O)CCNC(=O)C(c1ccccc1)c1ccccc1,-0.64
CC(=O)c1cccc(S(=O)(=O)N2CCCC(c3nc4c(nnn4Cc4ccc(C)cc4)c(=O)[nH]3)C2)c1 (stereo not drawn),-1.53
